Screens: PubChem BioAssay, ICCB-Longwood Screening Facility, Harvard Medical School
MgrA DNA FP – modulators of Staphylococcus aureus MgrA DNA binding. fluorescence polarization. inhibition, %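 (about 10 µg/mL by stock and volumes)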. hit rate 0.13% among 84,000. AID 602314;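 active = above 50% in either of two replicates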;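 note: 0% = protein plus DNA without compound and 100% = DNA alone without protein; higher means less MgrA bound to DNA so lower polarization; one replicate is shown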
Sa helicase inh – blocks Staphylococcus aureus DNA helicase | purified S. aureus helicase, fluorescence unwinding assay; about half of the hits fall short of the stated cut | inhibition, %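 (tested at about 80 µM)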 | hit rate 0.05% among 120,000 | AID 485395;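 active = both duplicates at 50% or more, or one of them with a favoured structure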;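 note: 0% = mean of negative control wells and 100% = mean of positive control wells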
Starred values were filed as active, the others as inactive; · = no result given; & = joins results of further samples. Not all compounds are listed. The share of hits here may be higher or lower than overall.

| structure | MgrA DNA FP | Sa helicase inh |
| --- | --- | --- |
| O=C(CCS(=O)(=O)c1cccc2nsnc12)N1CCCCC1 | · | 15 |
| CC(C(=O)NC1(C#N)CCCCC1)N1CCNC(=O)C1 (configuration not stated) | · | -9 |
| Nc1cccc2c1C(=O)N(CC(=O)N1CCc3ccccc31)C2=O | · | -7 |
| COc1cccc(NC(=O)CN(C)C(=O)c2ccccn2)c1 | · | 2 |
| CCN(CC)c1ccc(C=Nc2ccc(Br)cc2)cc1 | 0.9 | -12 |
| CCOC(=O)CN1C(=O)C2(OCCCO2)c2ccccc21 | -1.4 | 1 |
| O=C1Nc2ccccc2/C1=C\C1=Cc2ccccc2OC1 | 7.3 | -6 |
| CCOC(=O)C1=C(NC(=O)c2cccc(F)c2)Nc2ccccc2N=C1 | · | 9 |
| NS(=O)(=O)c1ccc(NC2SC(=O)N(c3ccccc3)C2=O)cc1 (configuration not stated) | · | -18 |
| CN(C)S(=O)(=O)c1cccc(-c2nnc(SCc3cc(Cl)cc4c3OCOC4)n2N)c1 | · | -20 |
| O=S(=O)(c1ccc(OCc2cc(Cl)cc3c2OCOC3)cc1)c1ccc(OCc2cc(Cl)cc3c2OCOC3)cc1 | -0.4 | · |
| Cc1ccc(C)n1CCN1CCN(C(=O)C(C)(C)C)CC1 | · | -19 |
| CC1CCN(C(=O)c2ccc(C(C)(C)C)cc2)CC1 | -1.1 | 6 |
| CCCC(=O)Nc1cc(Cl)cc(Cl)c1 | -1.5 | · |
| S=C(Nc1cccnc1)Nc1ccccc1N1CCCCC1 | · | -10 |
| O=C(c1[nH]c2ccccc2c1Sc1ccc(Cl)cc1)N1CCCC1 | -0.6 | 2 |
| O=C(Cn1c(=O)n(Cc2ccccc2)c(=O)c2ccccc21)NCCC1=CCCCC1 | -0.4 | 10 |
| CCCNc1sc(S(=O)(=O)CC)nc1S(=O)(=O)c1ccc(C)cc1 | · | -6 |
| Cc1ccc(CC2C(=O)N(c3ccc(C(=O)O)cc3)C(=O)C2C)cc1 (configuration not stated) | · | 13 |
| Nc1nonc1-n1nnc(C(=O)N/N=C2\CCc3ccccc32)c1-c1ccccc1 | 5.5 | 17 |
| CCSc1nc2c(c(=O)n1C)SCC2 | · | 5 |
| Cc1ccc(C(=O)CSc2nc3ccccc3c(=O)[nH]2)cc1 | -2.0 | · |
| O=C(N/N=C/c1ccc[nH]1)c1ccccc1O | 1.4 | 18 |
| C[N+]1(CC(=O)OCCCC2CCCCC2)CCCCC1 | -0.4 | 5 |
| O=c1c(O)c(-c2ccc3c(c2)OCO3)oc2ccccc12 | · | 9 |
| CSC1=C(C#N)C2(CCCCC2)C2=C(CCC2)N1 | -1.6 | 4 |
| O=C(O)c1cc(Br)c2ccccc2c1O | · | -7 |
| COc1ccc(-c2cc3nc4c(c(N5CC(C)CC(C)C5)n3n2)CCC4)cc1 (configuration not stated) | 4.5 | 19 |
| O=C(OCc1nnc(-c2ccccc2)o1)C1CC(=O)N(c2ccccc2)C1 (configuration not stated) | 2.9 | -13 |
| Fc1cccc(Cl)c1Cn1nnc(-c2ccccc2C(F)(F)F)n1 | -3.0 | · |

3 entries out of the list above, ordered by the number in MgrA DNA FP, smallest number first:
| structure | MgrA DNA FP | Sa helicase inh |
| --- | --- | --- |
| C[N+]1(CC(=O)OCCCC2CCCCC2)CCCCC1 | -0.4 | 5 |
| O=C(N/N=C/c1ccc[nH]1)c1ccccc1O | 1.4 | 18 |
| COc1ccc(-c2cc3nc4c(c(N5CC(C)CC(C)C5)n3n2)CCC4)cc1 (configuration not stated) | 4.5 | 19 |

Further structures.
| structure | MgrA DNA FP | Sa helicase inh |
| --- | --- | --- |
| Cc1oc2ncn(CC(C)C)c(=O)c2c1C(=O)N=C1NC(=O)CS1 | · | -1 |
| Clc1ccc(Nc2nnnc3ccccc23)cc1Cl | 2.8 | · |
| Cc1cc(C)c(NC(=O)c2[nH]c3c(c2C)C(=O)CCC3)c(C)c1 | · | 12 |
| Cc1cc(S(=O)(=O)c2ccc(C(F)(F)F)cc2[N+](=O)[O-])c(Cl)cc1Cl | -3.2 | · |
| CC1CCN(CN2C(=O)c3ccccc3C2=O)CC1 | 2.0 | -8 |
| CN(C)c1ccc(-c2nc3cc(NC(=O)c4cc([N+](=O)[O-])ccc4Br)ccc3o2)cc1 | -1.1 | · |
| COc1ccccc1NC(=S)NC(=O)C(C)C | 1.1 | 11 |
| O=C1CCCC1C1Sc2ccccc2NC1=O (configuration not stated) | · | 9 |
| O=c1oc2cc3occ(-c4ccccc4)c3cc2c2ccccc12 | 1.8 | 13 |
| CC(NC(=O)C(C)(C)C)C(c1cccs1)N1CCOCC1 (configuration not stated) | · | 6 |
| CCCSc1oc(-c2ccccc2)nc1S(=O)(=O)c1ccccc1 | · | -27 |
| O=C(c1ccc(Br)cc1)N1CCC(Cc2ccccc2)CC1 | -1.6 | 4 |
| CCOc1ccc(S(=O)(=O)N(CC(=O)Nc2ccc(CC#N)cc2)c2ccccc2)cc1 | · | 3 |
| COc1ccc(/C(C#N)=C/c2cn[nH]c2)cc1 | -0.8 | · |
| CC(C)Oc1ccc(C(=O)N(CN2CCCC2=O)c2ccc(F)cc2)cc1 | · | 5 |
| O=C(/C=N/O)Nc1ccccc1C(=O)O | -1.9 | -12 |
| COC(=O)c1cc2ccccc2cn1 | 0.1 | · |
| Cc1cc2n(n1)C(c1cccs1)Nc1ccccc1-2 (configuration not stated) | 0.2 | 8 |
| COc1ccc(C2=NS(=O)(=O)c3ccccc3N2)cc1OC | · | -10 |
| CCN(Cc1ccncc1)C(=O)c1cc(=O)c2ccccc2o1 | 0.2 | -4 |
| C=CCNC(=O)CN1C(=O)c2ccccc2S1(=O)=O | · | 12 |
| CCOC(=O)c1cccnc1SCC(=O)N(C)c1ccccc1 | · | -2 |
| Cc1nnc(SCc2cc(=O)n3[nH]cnc3n2)s1 | · | -12 |
| COc1ccc(CC(=O)Nc2ccc(N3CCN(c4ccc(OC)cc4)CC3)c(C#N)c2)cc1 | · | 3 |
| CSc1nc(N)cc(N)n1 | -3.1 | · |
| NC(=S)NNC(=O)C12CC3CC(CC(C3)C1)C2 | 2.2 | · |
| CC(C)=NNC(=O)COc1ccccc1 | · | 12 |
| CCOc1ncccc1C(=O)N1CCN(c2cccc(OC)c2)CC1 | · | 3 |
| O=C1NC(=Nc2ccccc2)S/C1=C\c1ccccc1 | · | -3 |
| CC(C)CC(=O)Nc1ccc(N2CCN(C(=O)c3cccs3)CC2)cc1 | · | -7 |

Single entries from above.
Sa helicase inh result of Cc1nnc(SCc2cc(=O)n3[nH]cnc3n2)s1 is entered as -12
Sa helicase inh result of C=CCNC(=O)CN1C(=O)c2ccccc2S1(=O)=O is entered as 12

(cont.)
| structure | MgrA DNA FP | Sa helicase inh |
| --- | --- | --- |
| O=c1c2ccccc2c2ccccc2c(=O)n1-c1ccccc1 | 3.1 | 1 |
| O=C(CSC(=S)N1CCOCC1)c1c[nH]c2ccccc12 | 0.6 | 2 |
| COc1cc(OC)nc(N)n1 | -0.4 | · |
| NC(=O)Cn1nc2sc3ccccc3n2c(=O)c1=O | · | 16 |
| COc1ccc(-c2c(C(=O)O)oc(=O)c3ccccc23)cc1 | · | -22 |
| C#CCOc1ccc2c(c1)c(C(=O)OCC)c(C)n2-c1ccc(N(C)C)cc1 | · | -4 |
| COc1cccc(NC(=O)Cn2c(-c3cncs3)nc3ccccc32)c1 | -0.9 | -12 |
| Cc1ccc(NC(=O)C2C3C=CC4(O3)C2C(=O)N(CCCN2CCOCC2)C4C(=O)NC2CCCC(C)C2C)cc1Cl (configuration not stated) | · | -36 |
| O=C(NCc1cccs1)c1cc2c(s1)-c1ccccc1OC2 | -2.2 | 0 |
| Cc1nn(Cc2c(Cl)cccc2Cl)c(C)c1NC(=O)c1noc2c1CC(C(C)(C)C)CC2 (configuration not stated) | 1.2 | 14 |
| Cc1ccc(OCC(=O)Nc2ccc(S(=O)(=O)N3CCOCC3)cc2)c(C)c1 | -2.1 | 5 |
| COc1ccc(CCn2c(=S)[nH]c3cc(C(F)(F)F)ccc32)cc1OC | -0.2 | · |
| CCOC(=O)c1c(-c2ccccc2)oc2ccc(OC(=O)c3ccc(OC)c(OC)c3)cc12 | 1.8 | · |
| CCOc1ccc(NC(=O)c2cc(-c3ccc(OC)c(OC)c3)nc3ccccc23)c([N+](=O)[O-])c1 | -1.4 | · |
| N#CC1(C#N)C(c2ccco2)OC23CCCCC2C1(C#N)C(=N)O3 (configuration not stated) | 30 | -37 |

The final three compounds of the section before come first, to join the parts.
Structure | MgrA DNA FP | Sa helicase inh
CCOC(=O)c1c(-c2ccccc2)oc2ccc(OC(=O)c3ccc(OC)c(OC)c3)cc12 | 1.8 | ·
CCOc1ccc(NC(=O)c2cc(-c3ccc(OC)c(OC)c3)nc3ccccc23)c([N+](=O)[O-])c1 | -1.4 | ·
N#CC1(C#N)C(c2ccco2)OC23CCCCC2C1(C#N)C(=N)O3 (configuration not stated) | 30 | -37
COc1ccc(C(=O)NCC(c2cccnc2)N(C)C)cc1 (configuration not stated) | · | -1
CCCCN(C)C(=O)C1c2ccccc2C(=O)N(Cc2ccc(F)cc2)C1c1ccc(OC)cc1 (configuration not stated) | -0.1 | 6
CS(=O)(=O)c1ccc2sc(N)nc2c1 | -0.3 | 8
CC(=O)OCC1=C(C(=O)O)N2C(=O)[C@@H](NC(=O)CSc3ccncc3)[C@H]2SC1 | 0.8&4.5 | ·
CC1(C)CC(N=Cc2ccco2)CC(C)(C)N1 | 2.1 | 1
CCS(=O)(=O)c1ccc(OC)c(NN=c2c(=O)c3ccccc3c2=O)c1 | · | -33
CCCc1nnc2n1N=C(c1ccc(Br)cc1)CS2 | 1.4 | 2
Cc1ccccc1NC(=O)NC1(C(=O)N2CCc3ccccc32)CCCCC1 | -2.2 | 18
Cc1cc(SC(C)C(=O)O)n2c(nc3ccccc32)c1C#N (configuration not stated) | · | 10
O=C(c1cc(-c2ccc3c(c2)OCO3)on1)N(C1CCCCC1)C1CCCCC1 | · | 14
COc1ccc(-c2nc(CS(=O)CC(=O)N3CCCC3)c(C)o2)cc1 (configuration not stated) | -1.1 | 22
CSc1nc(N/C=C(\C#N)S(=O)(=O)c2ccccc2Cl)nc(N(C)C)n1 | · | -10
N/C(=N\S(=O)(=O)c1ccccc1)c1ccccc1 | · | 3
CN1CCN(S(=O)(=O)c2ccc(NC(=O)C(C)(C)C)cc2)CC1 | 0.4 | -12
O=C(NCc1nc(-c2ccccc2)no1)c1ccccc1 | 2.7 | 6
O=C1CN(C(=O)C2CCCC2)C(c2ccc(F)cc2)c2cc(F)ccc2N1 (configuration not stated) | · | 9
O=C(CSc1nc2ccccc2n1Cc1ccccc1)Nc1ccccn1 | -3.0 | 9
CCCC(=O)NC(=S)Nc1cccc(-c2nc3cc(C)cc(C)c3o2)c1C | 1.1 | -2
CC1(c2ccc3c(c2)OCCO3)NC(=O)N(CC#N)C1=O (configuration not stated) | · | 19
Cc1cccc(N2CCN(Cc3c(O)ccc4ccccc34)CC2C)c1 (configuration not stated) | · | -24
COCCn1c(=NC(=O)CSCC(=O)N2CCCc3ccccc32)sc2cc(OC)ccc21 | -0.1 | 11
CN(C)C(=O)c1ccc(I)cc1 | 3.8 | 2
O=C(NC1(c2ccccc2)CC1)N1CCN(c2ccccc2)CC1 | 0.2 | -15
CN(C(=O)c1ccc(-n2cnnn2)cc1)C1CC(C)(C)NC(C)(C)C1 | 3.0 | 6
CCC(C)N=C1NC=NC2SC(C3COc4ccccc4O3)=CC12 (configuration not stated) | 1.2 | 20
NC(=O)NCC(=O)N1CCN(c2c(F)c(F)c(F)c(F)c2F)CC1 | · | 12
CCNc1ccc2oc3ccccc3c2c1 | -5.7 | -13
CCOc1ccc(NC(=S)NC(C)(C)CC)cc1 | -2.8 | ·
O=C(CCSc1ccccc1)Nc1nc2ccccc2s1 | · | -5
CC1=C(C(=O)OC2CCCCCC2)C(c2cccc(OCc3ccccc3)c2)NC(=O)N1 (configuration not stated) | 2.8 | ·
COc1ccc(NC(=O)Nc2c(C)noc2-c2ccccc2)cc1 | · | -1
C=C(C)CN1C(=O)C(O)(c2c[nH]c3ccccc23)c2ccccc21 (configuration not stated) | 7.6 | 11
CC(Cc1ccco1)NC(=O)c1ccc(C(F)(F)F)cc1 (configuration not stated) | -2.0 | 4
CCC(OCC(O)CN1CCCC1)c1ccccc1 (configuration not stated) | · | -11
OCCOc1ccc(Cl)cc1Cl | · | 8
O=C(CCc1nc2ccccc2[nH]1)Nc1ccccc1 | · | 10
COC(=O)c1c(C)[nH]c(C)c1/C=C1\C(=O)Nc2ccccc21 | -0.3 | ·
CNC(=O)c1cc(OC)ccc1Br | -1.4 | ·
O=C(O)CCn1cc(/C=C2\SC(=S)NC2=O)c(-c2ccccc2)n1 | · | 3
CCOC(=O)c1c(-c2ccccc2)csc1NC(=O)C(C)(C)C | · | 5
CC1=C(C(=O)Nc2ccccc2C(=O)NCCc2ccco2)SCCO1 | · | 0
Cc1cc(C)n(CC(=O)n2c3ccccc3c3ccccc32)n1 | -0.2 | -1
COC(=O)c1cc(=O)n(C2CC2)c(=NC2CC2)s1 | · | 12
CCOC(=O)/C=C(\C)Nc1cc(-c2ccc(Cl)cc2)[nH]n1 | -1.9 | 2
CC1=C(C#N)C(Nc2ccccn2)(C(F)(F)F)C(=O)N1 (configuration not stated) | · | 18
N#Cc1ccc2ccn(CC(=O)NCCc3ccccc3)c2c1 | -3.0 | 2
CC(=O)Oc1c(-c2ccccc2)c(=O)n2c3c(cccc13)CC2 | -1.9 | ·
O=C(Cn1c(-c2ccccc2)noc1=O)Nc1ccc(N2CCCCCC2)cc1 | -2.6 | 17
COc1ccc(-n2cnnn2)cc1 | · | 0
CS(=O)(=O)NCCc1ccc(C(=O)O)cc1 | · | 15
CCCc1cc(NC(=O)COC(=O)c2ccc(O)cc2O)n(-c2ccccc2)n1 | · | 16
Nc1nc2ccccc2n1CCOc1ccc2ccccc2c1 | · | 31
CC1Cc2ccccc2N1C(=O)c1ccc2c(c1)nnn2C (configuration not stated) | 4.6 | 8
O=[N+]([O-])c1ccc(N2CCSCC2)cc1O | -0.4 | ·
C=C(C)c1nc2ccccc2c(=O)o1 | · | 2
O=C(N/N=C/c1c[nH]c2ccc(Br)cc12)C1CC1 | · | 4
